# High-throughput results as filed in PubChem BioAssay.
# HSV replic up: increases HSV replication in cells; HSV replication augmentation in cells, fold increase; maximum fold increase; actives 0.005% (n = 220,000);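 active means peak rise of 1.5-fold or more in the series; tested in PC3 cells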;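 further: first round at 10 µM; read as green reporter fluorescence; hits show the peak of a series up to 25 µM; 1 = signal of infected wells without compound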
# RGS16-Gao: regulators of human RGS16-Galphao interaction; bead-based flow cytometry RGS16-Galphao binding, fluorescence; actives lie on both sides; AID 1441; binding response (% of control), % at 10 µM; O15492+P09471; actives 0.38% (n = 220,000);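 active means below 25% or above 175%, edge rows of some plates excepted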;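 further: Galphao activated by GDP with aluminum fluoride before binding; 100% = wells without compound and 0% = beads without RGS; some results beyond the cut were filed as inactive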
# Target sequence (O15492 whole entry, looked up): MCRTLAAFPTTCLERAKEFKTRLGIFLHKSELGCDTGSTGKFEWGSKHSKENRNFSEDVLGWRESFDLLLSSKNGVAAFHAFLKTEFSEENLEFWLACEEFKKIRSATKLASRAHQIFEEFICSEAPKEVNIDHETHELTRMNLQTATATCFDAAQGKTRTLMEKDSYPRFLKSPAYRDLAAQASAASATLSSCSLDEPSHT
# Target sequence (P09471 whole entry, looked up): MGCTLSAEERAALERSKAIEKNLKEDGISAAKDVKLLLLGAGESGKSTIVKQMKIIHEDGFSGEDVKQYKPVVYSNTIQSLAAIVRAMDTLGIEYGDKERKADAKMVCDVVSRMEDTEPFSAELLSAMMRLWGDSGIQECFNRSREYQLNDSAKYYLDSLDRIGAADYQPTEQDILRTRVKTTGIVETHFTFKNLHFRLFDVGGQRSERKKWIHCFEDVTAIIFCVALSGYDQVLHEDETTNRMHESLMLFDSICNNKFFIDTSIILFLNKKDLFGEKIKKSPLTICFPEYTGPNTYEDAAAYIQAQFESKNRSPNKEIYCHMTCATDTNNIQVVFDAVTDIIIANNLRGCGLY
# GALR2 ag: activates the human galanin receptor 2; O43603; GALR2-expressing cells, agonist activation read-out; activation, %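 (tested at 5 µM)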; actives 0.48% (n = 140,000); AID 803;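 active means above mean plus 3 SD of all compounds, about 5% in these data, not always enough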;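 further: 0% = vehicle buffer wells and 100% = reference agonist at full effect; tested in CHO reporter cells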
# Target sequence (O43603 whole entry, looked up): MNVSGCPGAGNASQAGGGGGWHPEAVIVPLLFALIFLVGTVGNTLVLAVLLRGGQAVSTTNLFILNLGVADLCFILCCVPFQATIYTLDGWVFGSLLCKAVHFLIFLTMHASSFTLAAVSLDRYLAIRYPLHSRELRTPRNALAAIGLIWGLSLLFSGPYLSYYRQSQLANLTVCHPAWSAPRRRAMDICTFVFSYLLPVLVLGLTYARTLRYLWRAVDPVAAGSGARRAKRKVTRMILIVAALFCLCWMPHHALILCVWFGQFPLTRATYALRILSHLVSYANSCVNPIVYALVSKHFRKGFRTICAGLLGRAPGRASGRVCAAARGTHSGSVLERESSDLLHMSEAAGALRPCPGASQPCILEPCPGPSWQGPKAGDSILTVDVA
# PKD1 kinase inh: inhibitors of human PKD1 kinase; inhibition, %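 (about 10 µM by stock and volumes)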; AID 797; PKD1 kinase fluorescence polarization assay; actives 0.056% (n = 200,000);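 active means inhibition of 50% or more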;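 further: controls were vehicle for no effect and a reference inhibitor for full effect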
# Insulin prom inh: TRM-6 insulin promoter activity inhibition. inhibition, % at 2 µM. TRM-6 cells (human fetal islet line), insulin promoter-eGFP reporter, imaging; reporter expression induced with tamoxifen. actives 0.9% (n = 130,000);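 active means inhibition above the mean plus 3 SD, with well images judged a real hit on visual review, cut at about 60% in these data, passing the limit was not always enough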
# Insulin prom inh cell count: further read-out of Insulin prom inh, marked with its call; normalized cell count, %; measured here: cell count, toxicity; reference of the scale not given here;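 cells exposed to compound for 48 h; stained nuclei by imaging scaled within each plate; lower means fewer cells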
# HSV replic up primary fold: recorded beside HSV replic up, whose call it bears; fold increase; compound at 10 µM; measured here: primary screen fold increase 10 uM; tested in PC3 cells;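 GFP signal in the first replicate; 1 = infected wells without compound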
# * = called active by the depositor; i = inactive; . = no result given; & = joins results of further samples.
SMILES,HSV replic up,HSV replic up primary fold,GALR2 ag,Insulin prom inh,Insulin prom inh cell count,PKD1 kinase inh,RGS16-Gao
Cc1cccc(-n2ncc3c(Nc4c(C)n(C)n(-c5ccccc5)c4=O)ncnc32)c1,i,0.77,-2.0,100*,32*,-7,87
c1ccc(CN(Cc2ccccc2)c2ncnc3c2nnn3Cc2ccccc2)cc1,i,0.98,.,.,.,.,100
O=C(COC(=O)c1ccccc1F)Nc1cccnc1Cl,i,0.92,.,.,.,-2,100
Cc1cc(C)n(-c2ccc(Cl)c(C(=O)Nc3cc(C(F)(F)F)ccc3Cl)n2)n1,i,0.94,-1.6,.,.,-9,102
Cc1ccnc(N2CCC(C(=O)NCc3ccc4c(c3)OCO4)CC2)n1,i,0.84,-2.0,-55,109,-5,102
CC1CCCCN1c1nnc(NC(=O)c2cc(-c3ccc(Br)cc3)on2)s1 (stereo unspecified),i,0.9,-1.4,.,.,-12,102
CCOC(=O)c1[nH]c(C)c(C(=O)Nc2ccccc2F)c1C,.,.,-0.1,16,83,-7,105
Cc1noc(NS(=O)(=O)c2ccc(NC(=O)COc3ccccc3)cc2)c1C,i,0.99,-1.2,-12,112,-5,100
COc1ccc(CCN=Cc2ccccc2O)cc1OC,i,1.1,.,.,.,.,100
O=C(COc1ccccc1)N1CCN(S(=O)(=O)c2cccc([N+](=O)[O-])c2)CC1,i,0.92,.,.,.,9,94
O=C(NCc1ccco1)C(=O)c1c[nH]c2ccccc12,i,0.86,.,.,.,-3,101
COc1cccc(-c2nnc3sc(C4CCCCC4)nn23)c1,i,0.68,0.6,-29,83,-8,92
CN1CCN(CCC(=O)Nc2ccc(F)c(F)c2)CC1,i,0.92,-1.0,13,138,2,183
Cc1ccc(S(=O)(=O)n2[nH]c(=O)c(CCO)c2C)cc1,i,1.1,.,.,.,-2,105
Cc1nc(SCC(=O)Nc2c(C)n(C)n(-c3ccccc3)c2=O)nc(C)c1C,i,0.96,-0.2,12,113,0,100
O=C(CNC1CCN(Cc2ccccc2)CC1)Nc1ccc(S(=O)(=O)N2CCCCC2)cc1,i,0.88,.,.,.,.,97
O=C(NC(=S)Nc1nc2c(s1)CCCC2)c1ccc(C(=O)c2ccccc2)cc1,i,0.99,-0.8,0,143,-8,67
COc1ccc(CC(=O)Nc2cccc(C(=O)O)c2C)cc1,i,0.97,-0.7,-19,142,-14,99
O=C(NCc1ccco1)c1nc(-c2ccccc2)n(-c2ccccc2)n1,i,0.97,-1.6,3,65,6,99
COc1ccc(CCNC(=O)c2cccnc2SC)cc1,i,0.88,.,8,145,-5,110
c1ccc(-c2nc3ccccc3nc2-c2ccccn2)nc1,i,1.4,-0.8,-54,100,0,105
Nc1ccccc1S(=O)(=O)c1ccccc1N,i,1.1,0.0,.,.,-1,98
Cc1cc(C(=O)OCC(=O)c2c(N)n(C)c(=O)n(C)c2=O)c(C)n1-c1ccccc1,i,0.88,0.0,8,105,-3,93
COc1cccc(OC)c1C(=O)OCC(=O)NC(=O)NCc1ccccc1,i,0.88,.,20,150,-3,97
Nc1c(C(=O)NCc2ccco2)nnn1CC(=O)Nc1ccc2c(c1)OCO2,i,0.93,.,.,.,0,98
O=C(NC1CCCC1)C(c1ccccn1)N(C(=O)c1csnn1)C1CCCC1 (stereo unspecified),i,1.1,-0.8,-111,116,-6,102
O=C(NC1CCCC1)c1cc(S(=O)(=O)N2CCOCC2)c(Cl)cc1Cl,i,0.94,.,-18,81,-4,99
CCN1CCCC1CNC(=O)c1ccc2c(=O)n(CCOC)c(=O)[nH]c2c1 (stereo unspecified),i,1.1,-1.1,.,.,2,109
Cc1ccc(S(=O)(=O)N(C)c2c(C)ccc(S(=O)(=O)NC(C)(C)C)c2C)cc1,i,0.88,.,-71,126,-5,108
O=C(COC(=O)[C@@H]1CC(O)CN1S(=O)(=O)c1ccc2c(c1)OCCO2)NCc1ccc(F)cc1 (stereo partly specified),i,0.96,.,.,.,-2,93

# Single records (already shown). Order of screens: HSV replic up	HSV replic up primary fold	GALR2 ag	Insulin prom inh	Insulin prom inh cell count	PKD1 kinase inh	RGS16-Gao
# Cc1ccnc(N2CCC(C(=O)NCc3ccc4c(c3)OCO4)CC2)n1 reads i	0.84	-2.0	-55	109	-5	102
# CCOC(=O)c1[nH]c(C)c(C(=O)Nc2ccccc2F)c1C reads .	.	-0.1	16	83	-7	105

# Next section.
SMILES,HSV replic up,HSV replic up primary fold,GALR2 ag,Insulin prom inh,Insulin prom inh cell count,PKD1 kinase inh,RGS16-Gao
O=C(NCCN1CCN(c2ccccc2)CC1)C1CCCN(S(=O)(=O)c2cnc[nH]2)C1 (stereo unspecified),i,0.92,-0.5,.,.,-6,98
FC(F)(F)c1cc(-c2cccs2)nc(NCc2ccco2)n1,i,1,-1.9,.,.,-8,103
CCOc1ccc(Cn2c(SCCCCC#N)nc3c2c(=O)n(C)c(=O)n3C)cc1OCC,i,0.96,-0.2,-100,94,11,93
COC(=O)c1ccc(CN2CCN(CCc3ccccc3)C(CCO)C2)cc1 (stereo unspecified),i,0.94,.,.,.,-10,109
CCOC(=O)c1nnn(-c2nonc2N)c1-c1ccccc1Cl,i,1,.,-121,85,3,99
CSc1nc(N(CCO)CCO)c2sc3nc(-c4ccco4)c4c(c3c2n1)CCC4,i,0.81,0.8,0,109,-6,120
COC(=O)COc1ccc(S(=O)(=O)N2CCN(c3ccccc3F)CC2)cc1,i,0.94,-1.9,.,.,-23,94
Cc1cccc(C(=O)N2CCC(c3nc(-c4ccc(S(=O)(=O)N5CCOCC5)cc4)no3)CC2)c1,i,0.95,-1.7,10,80,6,90
CC(C)n1c(Nc2ccccc2)nc2ccccc21,i,0.86,-3.5,-4,122,0,101
Cc1ccc(-n2c(C)cc(C(=O)OCC(=O)N(CC(C)C)C3CCS(=O)(=O)C3)c2C)cc1 (stereo unspecified),i,0.98,-2.2,-7,153,-35,76
CCOc1ccc(-n2nnc3c(=O)n(C/C=C/c4ccccc4)cnc32)cc1,i,0.91,-2.1,.,.,0,102
COc1ccc(CSc2nc(CSC)cc(N3CCOCC3)n2)cc1,i,1,-0.9,52,84,-7,103
Cc1ccccc1NC(=O)CSc1nc2c(c(-c3ccco3)c1C#N)CCCC2,i,1.2,-0.4,-17,146,2,87
COc1ccc(C(CC(=O)O)NC(=O)COc2ccccc2OC)cc1OC (stereo unspecified),i,0.95,-1.4,57,75,-13,99
COc1ccc2[nH]c(=O)c(CN(Cc3ccccc3OC)Cc3nnnn3CC3CCCO3)cc2c1 (stereo unspecified),i,0.82,-0.8,.,.,-6,99
Cc1ccc(OCC(=O)NN2C(=O)c3ccccc3C2=O)cc1,i,1,.,5,105,2,100
CN1CC2([N+](=O)[O-])CC=C(Oc3ccccc3)C([N+](=O)[O-])(C1)C2 (stereo unspecified),i,0.89,-1.5,8,104,3,102
CCOC(=O)c1cnc(-n2nc(C)cc2C)nc1-n1nc(C)cc1C,i,0.95,-1.1,-77,58,-11,101
O=C(c1ccc(-c2cccc(Cl)c2Cl)o1)N1CCOCC1,i,0.87,.,.,.,-7,98
O=S1(=O)C=C(Oc2ccc3ccccc3c2)c2ccccc21,i,0.8,-0.9,37,71,1,105
COCCn1c(SCC(=O)c2ccc(CNC(C)=O)o2)nc2ccccc2c1=O,i,0.83,-1.7,.,.,-6,96
O=c1cc(NS(=O)(=O)c2ccccc2)nc(SCc2c(Cl)cccc2Cl)[nH]1,i,0.97,-0.2,41,166,-5,102
CN(C)c1ccc(/C=N/NC(=O)C(O)c2ccc(Br)cc2)cc1 (stereo unspecified),i,0.98,.,.,.,-2,97
O=C1C=C(c2ccccc2)OC(=O)C1C(=O)c1ccccc1 (stereo unspecified),i,1&0.93,-0.3,60,147,-1,99&94
O=C(Nc1ccc(Cl)cn1)C1CC1,i,1,.,20,68,5,96
CCOC(=O)N1CCN(Cc2nc(N)nc(Nc3ccc(Oc4ccccc4)cc3)n2)CC1,i,0.71,-0.8,41,146,1,111
COc1cc2c(C(=O)NCc3ccc4c(c3)OCO4)cn(CC(C)C)c(=O)c2cc1OC,i,0.91,-2.2,.,.,-3,106
CCOc1ccccc1NC(=O)C12CC3CC(C1)CC(c1ccc(C)cc1)(C3)C2,i,0.87,-2.3,0,55,14,103
Cc1ccc(N2CC(C(=O)Nc3ccc(S(=O)(=O)N4CCCC4)cc3)CC2=O)cc1 (stereo unspecified),i,0.85,-1.1,36,94,-3,102
CC(=O)C(Cc1ccc(Cl)nc1)(Cc1ccc(Cl)nc1)C(C)=O,i,0.98,.,.,.,-4,97
O=C(COc1ccc(-c2ccccc2)cc1)N1CCN(C(=O)c2cccs2)CC1,i,0.93,.,26,130,2,99
C/C=C(\C)C(=O)NCCN1C2=NC[C@H](Cc3ccccc3)N2C[C@H]1Cc1ccc(O)cc1,i,1.1,.,.,.,5,19*
COc1cc(NC(=O)C2CC(=O)NC3=C2C(=O)CC(C)(C)C3)c(OC)cc1Cl (stereo unspecified),i,0.89,-1.9,-27,76,-20,96
Cc1ccc(-c2noc(C3CCCN(S(=O)(=O)c4ccc(S(=O)(=O)N(C)C)cc4)C3)n2)o1 (stereo unspecified),i,0.81,-1.4,26,117,-3,100
COc1ccc(/C=C2\OC(=O)c3c(OC)cccc32)cc1OC,.,.,0.7,.,.,-9,100
Clc1ccc2c(c1)C(c1cccs1)=NNC(c1cccnc1)=N2,i,1.1,-2.4,-61,77,-3,99
OC(Cn1cncn1)c1ccc(Cl)cc1Cl (stereo unspecified),i,0.96,-2.2,-10,131,-4,56
CCOc1ccc(-c2nc(-c3cccnc3)no2)cc1OCC,i,0.97,0.1,.,.,-6,106
CC(C(=O)O)N1C(=O)CSc2ncccc21 (stereo unspecified),i,0.95,-0.5,-93,118,-10,97
O=C(Nc1nnc(SCC(=O)N2CCCCC2)s1)C1CCCCC1,i,0.89,-0.6,73*,68*,-11,101
O=C(CN1C(=O)CCC1=O)Nc1ccc(S(=O)(=O)N2CCOCC2)cc1,.,.,-2.3,.,.,9,104
Cc1c(C(=O)NNc2cc(=O)n(C)c(=O)n2C)cccc1[N+](=O)[O-],i,0.9,.,.,.,-2,103
COc1ccc2nc(NC(=O)CSc3ccccc3)sc2c1,i,0.89,-1.5,-30,106,-2,105
Cc1nonc1C1CCCN1Cc1nc(-c2ccccc2Cl)oc1C (stereo unspecified),i,0.96,.,.,.,-5,100
Cc1nc2ccccc2n1-c1ccccc1,i,0.83,-1.9,.,.,-9,95
COCCn1nnnc1CN(CCCN1CCOCC1)Cc1cc2c(C)ccc(C)c2[nH]c1=O,i,1.1,-0.2,8,77,-4,101
O=c1ccc(-c2ccccc2)n[nH]1,i,0.94,0.3,15,83,3,107
CCOCC(=O)N1CCN(c2ccc([N+](=O)[O-])cc2)CC1,i,1.1,0.1,.,.,-6,48
Cn1nc(C(F)(F)F)c(C(=O)Nc2ccc(F)cc2F)c1Cl,i,0.93,.,.,.,-2,104
COc1ccccc1NS(=O)(=O)c1ccc(C)c(C(N)=O)c1,i,0.82,-1.6,56,113,-7,108
O=C(NC1CCCC1)c1ccc([N+](=O)[O-])s1,i,0.93,.,-18,110,-8,102
COC(=O)Cc1ccc(NC(=S)Nc2ccc(N3CCOCC3)cc2)cc1,i,0.86,.,6,117,-1,107
CC1Cc2ccccc2N1C(=O)CCN1C(=O)C2C3C=CC(C3)C2C1=O (stereo unspecified),i,1,-2.2,-9,99,1,98
CCCNS(=O)(=O)c1ccc(CCC(=O)NCC2CCCO2)cc1 (stereo unspecified),i,1.1,1.2,3,77,-8,101
O=C(/C=C/c1ccccc1[N+](=O)[O-])NCc1ccc(Cl)cc1,i,0.91,.,.,.,-8,105
COc1ccc(S(=O)(=O)N(CC(=O)Nc2cccnc2)c2ccccc2OC)cc1,i,1,-2.1,-20,141,-7,104

# 4 records picked at random from those above, as already listed:
SMILES,HSV replic up,HSV replic up primary fold,GALR2 ag,Insulin prom inh,Insulin prom inh cell count,PKD1 kinase inh,RGS16-Gao
COc1cccc(-c2nnc3sc(C4CCCCC4)nn23)c1,i,0.68,0.6,-29,83,-8,92
O=C(NC(=S)Nc1nc2c(s1)CCCC2)c1ccc(C(=O)c2ccccc2)cc1,i,0.99,-0.8,0,143,-8,67
Cc1nc2ccccc2n1-c1ccccc1,i,0.83,-1.9,.,.,-9,95
FC(F)(F)c1cc(-c2cccs2)nc(NCc2ccco2)n1,i,1,-1.9,.,.,-8,103
